Screening data deposited in PubChem BioAssay by National Center for Advancing Translational Sciences (NCATS).
TRPML1 inh: inhibitors of human TRPML1 channel; Q9GZU1; TRPML1-inducible cells, Ca2+ dye fluorescence, FDSS; stronger effect = lower value; inhibition of EC80 agonist-evoked calcium signal; activity change, negative = inhibition, % (test concentration not listed); 390,000 compounds, 0.02% hits; in the data active means activity change below about -50%; inconclusive means about -30% to -50%; inactive means above about -30%;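 note: stimulus is agonist 54-4 at its EC80 concentration; % is set by controls: 0 for no effect and ±100 for the full control effect; compound concentration not given in the record; the text of the record puts the active cut at -80%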
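Tet-induced TRPML1-DL cells loaded with Ca8 no-wash calcium dye were read kinetically on FDSS. Compound addition was followed by EC80 agonist 54-4 (4 uM final); inhibition was read over 110 s.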
TRPML1 agonist: activates the human TRPML1 channel | Q9GZU1 | 410,000 compounds, 0.12% hits | AID 624414 | TRPML1-expressing cells, Ca2+ dye fluorescence, FDSS; host cell line not named in the record; reference of the full effect not given here | activation, % (test concentration not listed); in the data active = activation above about 50%; inconclusive = about 30% to 50%; inactive = below about 30%; note: 0% is about no effect; the text of the record puts the active cut at 80%
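Cells: TRPML1-DL, 1X Tet inducer, ~16 h at 37 degrees C/5% CO2. Dye: ABD Ca8 no-wash + quencher, 45-90 min RT. Read: 10 s baseline, compound add, 110 s agonist phase; 54-4 EC80 (4uM final), 110 s antagonist phase.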
Six1-Eya2 blk: Six1/Eya2 interaction inhibition; Q15475+O00167; AlphaScreen GST-Six1/His-Eya2 binding, biochemical; stronger effect = lower value; control for the full effect not named in the record; activity change, % (no concentration beside the values); 360,000 compounds, 0.56% hits; in the data active = activity change below about -65%; inconclusive = about -30% to -65%; inactive = above about -30%; note: % is set by controls: 0 for no effect and ±100 for the full control effect
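Six1/Eya2 binding was read as AlphaScreen signal after compounds were pinned into GST-Six1 plus His-tagged Eya2 (5X stock 250/500 nM) in pH 8.0 Tris/NaCl/TCEP buffer, beads added, then incubated 1 h, 37 C, dark.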
D2 potentiator: positive allosteric modulators of human D2 dopamine receptor. DiscoveRx D2 beta-arrestin cells, luminescence, 90 min; 100% = 57 uM dopamine signal. potentiation, % (test concentration not listed). 360,000 compounds, 0.23% hits; active = potentiation of 50% or more; inconclusive = 30% to 50%; inactive = 30% or less;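 note: compound concentration not given in the record; tested on top of an EC20 dose of dopamine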
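PathHunter D2 cells, attached overnight at 37 deg C, received compound in DMSO plus dopamine at EC20 (50 nM final) for 90 min at 37 deg C. Beta-arrestin recruitment was read as luminescence after 1 h with detection reagent at ambient temperature.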
TRPV1 potentiator: potentiators of human vanilloid receptor 1 (TRPV1); TRPV1-expressing cells, Fluo-8 calcium influx, capsaicin EC20 potentiation; host cell line not named in the record; control for the full effect not named in the record; potentiation, % at 8.33 µM; 320,000 compounds, 0.02% hits; AID 540277; active means potentiation above 80%; inconclusive means 30% to 80%; inactive means below 30%; note: 0% is about no effect
Target sequence (Q8NER1 whole entry, looked up): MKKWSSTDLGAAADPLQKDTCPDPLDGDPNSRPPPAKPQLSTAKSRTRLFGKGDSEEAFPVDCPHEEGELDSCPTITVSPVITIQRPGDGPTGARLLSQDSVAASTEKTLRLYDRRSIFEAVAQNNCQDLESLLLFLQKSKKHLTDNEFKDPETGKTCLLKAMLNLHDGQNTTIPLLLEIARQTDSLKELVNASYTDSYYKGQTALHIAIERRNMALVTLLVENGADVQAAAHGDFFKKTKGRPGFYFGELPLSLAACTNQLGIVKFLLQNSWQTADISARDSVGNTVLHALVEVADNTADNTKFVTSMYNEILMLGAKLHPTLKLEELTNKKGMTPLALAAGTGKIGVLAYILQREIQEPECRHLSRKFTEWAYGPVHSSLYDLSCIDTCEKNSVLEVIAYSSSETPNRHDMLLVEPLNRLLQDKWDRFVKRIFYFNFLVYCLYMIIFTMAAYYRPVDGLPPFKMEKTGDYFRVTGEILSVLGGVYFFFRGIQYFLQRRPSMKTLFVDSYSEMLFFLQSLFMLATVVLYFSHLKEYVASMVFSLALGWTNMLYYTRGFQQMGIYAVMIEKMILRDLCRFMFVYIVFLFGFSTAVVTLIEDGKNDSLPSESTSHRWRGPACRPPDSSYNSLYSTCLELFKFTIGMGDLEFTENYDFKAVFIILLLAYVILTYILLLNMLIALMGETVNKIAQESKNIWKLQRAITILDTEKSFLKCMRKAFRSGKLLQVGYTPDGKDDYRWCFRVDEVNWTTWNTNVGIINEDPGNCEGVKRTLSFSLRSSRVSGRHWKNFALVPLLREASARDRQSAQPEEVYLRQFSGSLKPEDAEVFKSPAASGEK
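Fluo-8 calcium influx in TRPV1-expressing cells, kinetic read (ex 480/em 520 nm). Compound added and read 3 min for agonist activity, followed by capsaicin at EC20 final and 2 min further read for enhancement.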
CtBP-E1A blk: CtBP/E1A binding inhibition | AlphaScreen GST-E1A/His-CtBP binding, 1536-well; stronger effect = lower value; control for the full effect not named in the record | 340,000 compounds, 0.49% hits | AID 651724 | activity change, % (concentration not given with the values); in the data active means activity change below about -65%; inconclusive means about -30% to -65%; inactive means above about -30%; note: % is set by controls: 0 for no effect and ±100 for the full control effect
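Protein mix (5X: 125 nM each GST-E1A, His-CtBP) was incubated with pinned compound 2 h at 37 deg C in dark, in 50 mM Tris pH 8.0 buffer with 300 mM NaCl. Glutathione donor and nickel acceptor beads followed; AlphaScreen signal read after 1 h.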
* marks the source's active call; other numbers are inactive results; ? = inconclusive; nt = no result given; & = joins results of further samples.

Structure	Six1-Eya2 blk	CtBP-E1A blk	TRPV1 potentiator	TRPML1 agonist	TRPML1 inh	D2 potentiator
COC(=O)C1C(O)CCC2CN3CCc4c([nH]c5ccccc45)C3CC21 (stereo not drawn)	-11	0	-3	0.5	-4	-8
CCCN1C(=O)CC(Sc2ncccc2C(=O)O)C1=O (stereo not drawn)	4	0	-3	-0.5	4	-8
N#Cc1cc(-c2ccccc2)oc1/N=C/c1ccccc1O	-4	-4	2	-0.5	21	11
Nc1nonc1-n1nnc(C(=O)N/N=C/c2ccco2)c1-c1ccccc1	12	-1	19	0.1	4	-3
O=c1[nH]c2cc(C(F)(F)F)ccc2n1-c1cc(C(F)(F)F)ccc1O	4	0	0	1.2	-10	-1
CCCS(=O)(=O)N1CCN(CCCc2ccccc2)CC1	2	22	11	2.2	20	-10
CCN(CC)C(=O)c1[nH]cnc1C(=O)Nc1ccc(Cl)cc1	-1	1	0	-0.8	1	-20
Cc1cccc(C)c1NC(=O)C1(C)CCC(=O)N1CCOc1ccccc1 (stereo not drawn)	-1	6	nt	-0.3	1	0
COc1cccc(Cn2nnc3c(=O)[nH]c(C4CCCN(C(=O)c5ccccc5Cl)C4)nc32)c1 (stereo not drawn)	-5	0	6	1.5&2.6	3&9	-13
CC(OC(=O)c1cc(S(=O)(=O)Nc2ccc(F)cc2)ccc1Cl)C(=O)Nc1ccc2c(c1)OCCO2 (stereo not drawn)	-4	10	4	0.2	-19	-9
COc1ccc(NC(=O)/C(=C\c2ccncc2)NC(=O)c2ccccc2)cc1	-1	-9	-2	0.5	6	-15
O=C(Nc1cc2cccc([N+](=O)[O-])c2oc1=O)c1cccs1	4	1	0	-0.1	-16	-5
COc1cccc(C(C)=C2SC(=S)NC2=O)c1	-4	18	nt	-0.4	-1	-15
CCOc1ccc(NC(=O)CN(C)C(=O)c2cc(C)oc2C)cc1OCC	0	-1	-7	-0.4	4	-11
COc1ccc(CC(NC(C)=O)C(=O)NC2CCN(S(=O)(=O)c3ccccc3)CC2)c(OC)c1 (stereo not drawn)	5	-17	14	0.4	5	-15
CCOc1ccc(NC(=O)CN(C)C(=O)c2ccc(C)o2)cc1OCC	-3	3	-1	-1.0	11	-8
CC(C)CN(C(=O)c1cccc(S(=O)(=O)N2CCN(C)CC2)c1)C1CCS(=O)(=O)C1 (stereo not drawn)	11	2	5	0.9	-3	-15
COc1ccc(NS(=O)(=O)c2cccc(C(=O)NC3CCC(O)CC3)c2)cc1 (stereo not drawn)	-2	12	-13	-0.3	7	-4
O=C1Cc2ccccc2Sc2ccc(Cl)cc21	83	91	-3	0.9	-2	-14
CC1C/C(=C/c2ccccn2)C(=O)/C(=C/c2ccccn2)C1 (stereo not drawn)	-5	-2	-6	0.3	-5	-5
O=C(Nc1nc2ccccc2s1)c1cc(-c2ccccc2)nn1-c1ccccc1	-3	-1	0	1.6	62	-21
Cc1nc2ccccc2c(=O)n1NC(=O)c1c(O)c2c(n(CC(C)C)c1=O)CCCC2	-10	-6	3	-0.8	25	5
CC(C)Cn1c2ccccc2c2cc(C(=O)O)ccc21	1	1	14	-0.4	-2	1
COc1ccc(-c2nc(C(=O)NCC3CCCO3)cc3c2[nH]c2ccccc23)cc1 (stereo not drawn)	-12	-9	1	nt	nt	-1
CCN(c1ccccc1)S(=O)(=O)c1cc(C(=O)NCc2ccccn2)ccc1C	-1	-2	-19	-0.4	-3	-4
COc1ccc(NC(=O)CNC(=O)c2cccs2)cc1Cl	2	5	5	nt	nt	-8
CCC/C(=N/NC(=O)c1cccc(Cl)c1)c1ccccc1	1	2	-23	1.2	9	-11
COc1ccc(Cl)cc1Nc1nc(C)nc2c1nnn2Cc1ccccc1	5	11	24	0.7	23	-2
O=c1c2ccccc2nc2n1CC/C2=C/N1CCN(c2cccc(C(F)(F)F)c2)CC1	-5	6	6	3.5	10	-19
c1ccc(CCN(Cc2ccccc2)C2CCN(C3CCCC3)CC2)cc1	-2	-18	-11	-1.0	-3	-9
CC1=C(C/C=C(\C)CCC[C@H](C)CCC[C@H](C)CCCC(C)C)C(=O)c2ccccc2C1=O	6	8	nt	nt	nt	13
Cc1cnc(C(=O)OCC(=O)c2ccc(C)s2)cn1	9	nt	1	0.1	-6	2
COc1ccc(S(=O)(=O)Nc2ccc(S(=O)(=O)NCC3CCCO3)cc2)cc1 (stereo not drawn)	1	4	-4	1.0	2	-1
C=CCN(c1ccc(Cl)cc1)S(=O)(=O)c1cccc(C(=O)OCC(=O)N(C)C)c1	7	nt	-24	3.0	23	?
O=C(NCCCN1CCCC1=O)c1cccc(S(=O)(=O)N2CCCCC2)c1	1	7	-4	3.4	42	-1
COc1ccc(NC(=O)N2CCN(c3cccc(C(F)(F)F)c3)CC2)cc1OC	2	3	6	1.0	19	-11
CCN(CC(=O)Nc1cc(Cl)ccc1C)CC(=O)NC1CC1	2	2	nt	-0.2	11	-6
CNc1cccc(-c2ccc(C(=O)N3CCOCC3)cc2)n1	-7	0	nt	-0.4	nt	-6
CC1=C(C(=O)N(C(C)C)C(C)C)CC(CC(=O)NC2CC2)C(=O)N1CCC1=CCCCC1 (stereo not drawn)	6	2	nt	-0.6	nt	-3
Cc1cc2nc(-c3ccccc3)cc(=O)n2[nH]1	-4	1	-13	0.2	4	-11
C[C@H]1CN=C(Nc2ccccc2)N1CCCC1CCCCC1	1	0	23	0.3	5	-20
CCOC(=O)c1nn(-c2ccc(C)cc2)c(=O)cc1OCC(=O)N1CCN(c2ccccc2)CC1	2	-5	4	0.8	-6	-9
CCOC(=O)NCC(C#CCN(CC)CC)N(CC)CC (stereo not drawn)	3	4	-16	3.1	27	?
Cc1c(CCO)c(=O)oc2n[nH]c(-c3ccccc3)c12	4	8	-2	0.7	3	-6
COc1cc(CN2CCN(C(=O)CC(C)C)CC2)cc(OC)c1O	0	10	-2	-0.4	-5	-3
CCOC(=O)c1c(C)oc2c1cc(NS(=O)(=O)c1ccc(C(=O)O)cc1)c1ccccc12	-21	-15	9	-0.4	5	?
CCc1ccc(CNC(=O)C2CCN(S(=O)(=O)N3CCCCC3)CC2)cc1	-2	-25	nt	0.1	0	-7
Cc1cc(C)c(NC(=O)CSc2nc3ccc(NC(=O)CSc4nnnn4-c4ccccc4)cc3s2)c(C)c1	4	-20	-1	-0.7	-6	-18
CC(=O)Nc1c(S(=O)(=O)c2ccccc2)c2nc3ccccc3nc2n1Cc1ccccc1	-1	3	-1	-0.5	?	10
O=C1CC/C=C\C[C@@H](CC(=O)N(CCO)Cc2ccccc2)C(=O)NC[C@@H](c2ccccc2)O1	9	4	nt	-0.8	-10	-3

Some of these compounds in order of their number in D2 potentiator, high to low.
canonical_smiles	Six1-Eya2 blk	CtBP-E1A blk	TRPML1 inh	D2 potentiator
COc1ccc(S(=O)(=O)Nc2ccc(S(=O)(=O)NCC3CCCO3)cc2)cc1 (stereo not drawn)	1	4	2	-1
COc1ccc(Cl)cc1Nc1nc(C)nc2c1nnn2Cc1ccccc1	5	11	23	-2
COc1ccc(NC(=O)CNC(=O)c2cccs2)cc1Cl	2	5	nt	-8

(list continues)
Structure	Six1-Eya2 blk	CtBP-E1A blk	TRPV1 potentiator	TRPML1 agonist	TRPML1 inh	D2 potentiator
O=C(O)/C=C/c1cn(Cc2ccccc2)nc1-c1cccnc1	0	-2	1	-0.1	-12	-5
CC(=O)c1ccc(OCCCC(=O)NNC(=O)c2ccccn2)cc1	?	-70*	2	-0.1	11	0
O=C(CSc1nnc(CNc2ccc(F)cc2)n1CC1CCCO1)Nc1ccccc1 (stereo not drawn)	-3	8	13	0.0	-16	-5
Cc1cc2occ(CC(=O)O)c2cc1C	0	5	0	1.9	3	-5
COCCNC(=O)C(c1ccc(F)cc1)N(CCOC)C(=O)CCC(=O)Nc1ccccn1 (stereo not drawn)	9	7	-16	-0.3	-9	0
O=S1(=O)CC(N2CCCCC2)CN1Cc1cn(Cc2ccc(F)cc2)nn1 (stereo not drawn)	12	-8	nt	-0.3	nt	nt
Cc1ccccc1NC(=O)NCC1CCN(Cc2cccc(Cl)c2)CC1	1	2	-26	nt	nt	-23
O=C(Nc1cc(Cl)ccc1N1CCOCC1)C1=COCCO1	3	0	-7	-0.8	2	-19
CN1OC[C@@H]2CN(C(=S)NCCc3ccccc3)[C@H](c3ccc(N4CCCCC4)cc3)C[C@@H]21	-17	-10	nt	-0.7	nt	3
COC(=O)c1[nH]c2ccccc2c1NC(=O)CN1CCN(c2cccc(OC)c2)C(C)C1 (stereo not drawn)	?	-25	0	1.6	9	-5
Cc1ccc(-n2nc3c(=O)n(CC(=O)NCCc4ccccc4C)nc(C)c3c2C)cc1	3	-5	7	0.1	2	-15
C=CCC(O)(CC=C)C(C)N (stereo not drawn)	3	5	9	1.1	-2	-4
COC(=O)c1[nH]c2cc(OC)ccc2c1NC(=O)CCN1CCN(c2ccccc2)CC1	-11	-3	-8	-0.6	-8	-11
CCOc1cnc(C(=O)NNC(=O)c2ccccc2Br)o1	0	5	9	0.9	24	-3
Nc1cc(=O)nc(SCC(=O)Nc2cccc3ccccc23)n1CCc1ccccc1	-25	-19	25	-0.5	-20	-4
CN(C)S(=O)(=O)c1ccc(C(=O)OCC(=O)Nc2sc3c(c2C#N)CCCCC3)cc1	-2	0	4	-0.5	7	-9

Record cards (already shown). Order of screens: Six1-Eya2 blk, CtBP-E1A blk, TRPV1 potentiator, TRPML1 agonist, TRPML1 inh, D2 potentiator
Profile of CN(C)S(=O)(=O)c1ccc(C(=O)OCC(=O)Nc2sc3c(c2C#N)CCCCC3)cc1 → -2, 0, 4, -0.5, 7, -9
Profile of CC(=O)c1ccc(OCCCC(=O)NNC(=O)c2ccccn2)cc1 → ?, -70*, 2, -0.1, 11, 0
Profile of Nc1cc(=O)nc(SCC(=O)Nc2cccc3ccccc23)n1CCc1ccccc1 → -25, -19, 25, -0.5, -20, -4
